# Assay outcomes from PubChem BioAssay.
# hNpr1 antagonist: antagonists of human natriuretic peptide receptor Npr1 | P16066 | HEK293 hNpr1 GloSensor cGMP, ANP-stimulated luminescence | Potency, µM (top dose mostly 46.3 µM), for inactives: top-dose activity change, negative = inhibition, hits mostly inhibitors | 76,000 compounds, 1.6% hits; active = well fitted inhibition curve with a large enough effect; inconclusive = small, poorly fitted or top-dose-only effect; inactive = no such curve, though single readings can be large or run the other way;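 also: nearly all actives have a fitted effect of over 60% in size; nearly all hits also lower the signal before the agonist is added; a reference antagonist and vehicle were the controls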
# Target sequence (P16066 whole entry, looked up): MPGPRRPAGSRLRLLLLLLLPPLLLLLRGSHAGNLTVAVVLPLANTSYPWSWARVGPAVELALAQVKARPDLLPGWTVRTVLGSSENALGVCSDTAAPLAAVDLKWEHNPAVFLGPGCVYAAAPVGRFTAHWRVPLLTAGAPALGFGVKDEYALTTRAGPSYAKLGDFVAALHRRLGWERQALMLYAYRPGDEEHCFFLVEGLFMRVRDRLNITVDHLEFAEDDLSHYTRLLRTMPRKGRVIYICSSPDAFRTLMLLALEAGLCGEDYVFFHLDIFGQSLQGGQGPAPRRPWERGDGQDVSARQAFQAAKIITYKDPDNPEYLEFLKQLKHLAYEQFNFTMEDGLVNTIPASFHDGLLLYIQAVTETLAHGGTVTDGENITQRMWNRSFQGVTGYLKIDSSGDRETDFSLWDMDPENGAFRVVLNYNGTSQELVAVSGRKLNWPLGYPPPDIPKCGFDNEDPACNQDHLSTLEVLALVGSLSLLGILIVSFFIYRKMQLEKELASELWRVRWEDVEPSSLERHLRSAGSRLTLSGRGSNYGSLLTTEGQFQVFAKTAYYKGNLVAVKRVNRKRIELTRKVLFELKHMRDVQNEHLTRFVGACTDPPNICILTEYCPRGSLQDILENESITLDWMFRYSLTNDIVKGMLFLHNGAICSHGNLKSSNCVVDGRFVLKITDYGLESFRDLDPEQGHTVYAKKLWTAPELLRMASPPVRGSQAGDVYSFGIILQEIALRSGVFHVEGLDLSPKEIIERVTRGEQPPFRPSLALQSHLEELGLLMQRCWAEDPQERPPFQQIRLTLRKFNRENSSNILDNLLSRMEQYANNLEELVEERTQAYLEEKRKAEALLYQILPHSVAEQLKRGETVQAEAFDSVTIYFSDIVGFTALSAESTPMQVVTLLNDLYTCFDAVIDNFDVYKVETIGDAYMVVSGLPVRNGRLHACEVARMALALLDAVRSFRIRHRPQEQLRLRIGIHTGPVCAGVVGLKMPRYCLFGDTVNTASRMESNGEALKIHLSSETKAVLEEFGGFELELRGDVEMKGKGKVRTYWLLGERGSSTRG
#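 HEK293 cells stably expressing human Npr1 and cGMP GloSensor pGS-40F, loaded 2 h with 2% GloSensor reagent, given compound 30 min at room temperature. Luminescence read before and 20 min after 0.1 nM hNppA.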
# Active calls of the source: *; ? = inconclusive; [ ] = another dose, or the depositor's remark. % is scaled to controls: 0 for no effect and ±100 for the full control effect; potency is read from the fitted curve at half-maximal effect. The list is partial (hit frequency here may not be typical).
no. | hNpr1 antagonist | molecule
1 | -13%[70.6 µM] | Cc1cc(C)cc(NC(=S)N[C@H]2CO[C@H]3[C@@H]2OC[C@H]3OC(=O)NC2CCCCC2)c1
2 | 13µM* | O=C(c1cc(F)ccc1Cl)N1CCC(n2cc(-c3nc(-c4ccccc4)no3)nn2)C1 (stereo unspecified)
3 | -20% | O=C([C@@H]1C[C@H](F)CN1S(=O)(=O)Cc1ccccc1)N1CCc2ccccc2C1
4 | -1% | CC(C)Oc1ccc(C(=O)N2CC(c3nnc(-c4ccncc4)o3)C3(CCOCC3)C2)cc1 (stereo unspecified)
5 | ? | COc1cccc(N2CCN(c3nc(C(=O)NCc4ccncc4)cs3)CC2)c1
6 | -1% | Cn1cccc1C(=O)NC[C@H]1O[C@@H](CO)[C@@H](O)C1N1CCN(c2ccccc2)CC1 (stereo partly specified)
7 | 0% | Cc1ccc(CNC(=O)c2cc3cn(C(C)C)cc3s2)o1
8 | 18% | Cc1cc(C)n(CCC(=O)NCc2cccnc2Oc2ccccc2F)n1
9 | -1% | CCC(C)C(=O)Nc1c(C(=O)OC)n(CC2CCCO2)c2ncc(NC(C)CC(C)(C)O)cc12 (stereo unspecified)
10 | -3% | CCCCS(=O)(=O)N1CC(n2cc(COc3ccccc3)nn2)C1
11 | -1% | CCOc1ccc(CC(=O)N2C[C@@H](N)C[C@H]2C(=O)NC(C)C)cc1
12 | -1% | COC(=O)[C@H](CC1CCCCC1)NC(=O)[C@H]1CN(C(=O)c2cccc(F)c2)CCN1C(C)=O
13 | -27% | Cc1ccc(NC(=O)Cn2c(-c3cnccn3)nc(C)c(C)c2=O)cc1Cl
14 | 0% | O=C(NCc1cccs1)C1CN(c2cccc(Cl)c2)C(=O)N1 (stereo unspecified)
15 | -17%[70.6 µM] | Cc1ccc(-c2cnc([C@@H]3COCCN3Cc3ccccc3F)[nH]2)cc1
16 | -2% | O=C(NCc1cccs1)c1ccc2c(c1)n(Cc1cccc(F)c1)c(=O)c1ccnn12
17 | -2% | Cc1nc(N(C)C2CCCCC2)ncc1C(C)NC(=O)C1(CO)CC1 (stereo unspecified)
18 | 2% | CC(=O)N1CCN(C2CCOC3(CCN(S(=O)(=O)c4ccccc4)CC3)C2)CC1 (stereo unspecified)
19 | 2% | CS(=O)(=O)N(Cc1cccnc1)C1CN(C(=O)Cc2c[nH]c3ccccc23)C1
20 | 0% | Cc1ccc(S(=O)(=O)NC[C@H]2OC[C@@H](NC3CCNCC3)[C@@H]2O)cc1
21 | 8% | COCc1c(C(=O)N2C[C@@H](CO)[C@H](c3ccccn3)C2)noc1C
22 | 15% | CCCn1cc(CN2CCc3nc(NC)nc(C(=O)N4CCCC4)c3C2)c(C)n1
23 | -24% | CCNc1cc(N2CCC(CCC(=O)Nc3cc(C)ccc3OC)CC2)ncn1
24 | -19% | COc1ccc(C)cc1NC(=O)N1CCC(OC2CCN(Cc3ccccc3)CC2)CC1
25 | 2% | COCc1ccc2c(c1)c(OC(C)(C)C(=O)NCCN1CCOCC1)nn2Cc1ccccc1
26 | 5%[70.6 µM] | CC(C)NC(=O)C[C@@H]1C[C@H]2O[C@H](CNCc3ccccc3C(F)(F)F)[C@@H](O)[C@H]2O1
27 | 6% | CCN1CC2(CCN(C(=O)C(C)(C)N)CC2)CC(c2ccccc2)C1=O (stereo unspecified)
28 | 7% | CC(C)(Oc1ccc2c(c1)CCC2)C(=O)N1CCC2(CC(=O)NC2=O)C1 (stereo unspecified)
29 | 3% | Cc1noc([C@@H]2CN(C(=O)c3cc(C)n(C)n3)C[C@H]2COCC2CC2)n1
30 | 2% | CN(CCCn1cccn1)C(=O)C1CCN(C(=O)C2CCCC2)CC1
31 | -7% | C=CCN1CCN(C(=O)c2ccc(N3CC4CC(C3)[C@H]3CCCC(=O)N3C4)nc2)CC1 (stereo partly specified)
32 | -7% | CCn1cnnc1-c1nn(C)c2c1CN(C(=O)c1[nH]nc3c1CCc1cc(OC)ccc1-3)CC2
33 | -16% | CCCCNC(=O)Cc1csc2nc(C)c(-c3cc(C)n(-c4ccc(C)cc4C)n3)c(=O)n12
34 | 1% | COc1ccc(NC(=O)O[C@@H]2CO[C@H]3[C@@H]2OC[C@@H]3NC(=O)Nc2cccc(C#N)c2)cc1
35 | -2%[70.6 µM] | c1ccc(Nc2cc3c(cn2)CN(Cc2cnc[nH]2)CCN3)cc1
36 | 0% | CCN(CC)Cc1cc(C2CC(=O)Nc3n[nH]c(C(=O)O)c32)ccc1OC (stereo unspecified)

# Shown as labelled records: part of the list above
2	O=C(c1cc(F)ccc1Cl)N1CCC(n2cc(-c3nc(-c4ccccc4)no3)nn2)C1 (stereo unspecified)
  hNpr1 antagonist: 13µM*

3	O=C([C@@H]1C[C@H](F)CN1S(=O)(=O)Cc1ccccc1)N1CCc2ccccc2C1
  hNpr1 antagonist: -20%

4	CC(C)Oc1ccc(C(=O)N2CC(c3nnc(-c4ccncc4)o3)C3(CCOCC3)C2)cc1 (stereo unspecified)
  hNpr1 antagonist: -1%

5	COc1cccc(N2CCN(c3nc(C(=O)NCc4ccncc4)cs3)CC2)c1
  hNpr1 antagonist: ?

# An excerpt of these results, tab-delimited.
No.	molecule	hNpr1 antagonist
12	COC(=O)[C@H](CC1CCCCC1)NC(=O)[C@H]1CN(C(=O)c2cccc(F)c2)CCN1C(C)=O	-1%
13	Cc1ccc(NC(=O)Cn2c(-c3cnccn3)nc(C)c(C)c2=O)cc1Cl	-27%
14	O=C(NCc1cccs1)C1CN(c2cccc(Cl)c2)C(=O)N1 (stereo unspecified)	0%
15	Cc1ccc(-c2cnc([C@@H]3COCCN3Cc3ccccc3F)[nH]2)cc1	-17%[70.6 µM]
16	O=C(NCc1cccs1)c1ccc2c(c1)n(Cc1cccc(F)c1)c(=O)c1ccnn12	-2%

# New compounds follow
no. | hNpr1 antagonist | molecule
37 | -17%[70.6 µM] | CN1C[C@H](O)C[C@H]1c1nc(-c2ccc(OC(F)(F)F)cc2)no1
38 | -5% | Cc1cc(C)n(Cc2ccc(C(=O)N3CCCCCCNC(=O)CC3)o2)n1
39 | -1% | CCOCCCNC(=O)c1c(C)noc1-c1cc(OC)c(OC)c(OC)c1
40 | -22% | CCCN(CCC)C(=O)CC1=CSC2=NC(CC)=C(C(=O)OC)C(c3cccc(F)c3)N12 (stereo unspecified)
41 | -21%[70.6 µM] | COc1ccc(CN2CCOC[C@H](Oc3ccc(C(F)(F)F)cn3)C2)cc1
42 | 2% | Cc1cc(C(=O)N2CCN(C(=O)N3CC4CC(C3)[C@H]3CCCC(=O)N3C4)CC2)n(C)n1 (stereo partly specified)
43 | -5% | Cn1cnnc1CC1CCCN(C(=O)c2ccco2)C1 (stereo unspecified)
44 | 9% | CC(C)(CC(=O)O)CC(=O)N[C@H]1CO[C@H]2[C@@H]1OC[C@@H]2n1nnnc1Oc1ccc2c(c1)OCO2
45 | ? | COc1ccc(OCC2(C)COc3ccc(C(=O)NCc4cccnc4)cc3N2)cc1 (stereo unspecified)
46 | 0% | CC(=O)N1CCC(C(=O)N2CCC(n3cc(-c4nc(-c5ccccc5)no4)nn3)CC2)CC1
47 | 0%[70.6 µM] | CN1CCC(NC(=O)C(C)(C)Oc2nn(CCOc3ccccc3)c3ccccc23)CC1
48 | -26% | CCn1c(C2CCCN(C(=O)Nc3ccc4c(c3)OCCO4)C2)nn(C)c1=O (stereo unspecified)

# Part of the list above, reformatted.
no.	SMILES	hNpr1 antagonist
37	CN1C[C@H](O)C[C@H]1c1nc(-c2ccc(OC(F)(F)F)cc2)no1	-17%[70.6 µM]
38	Cc1cc(C)n(Cc2ccc(C(=O)N3CCCCCCNC(=O)CC3)o2)n1	-5%
39	CCOCCCNC(=O)c1c(C)noc1-c1cc(OC)c(OC)c(OC)c1	-1%
40	CCCN(CCC)C(=O)CC1=CSC2=NC(CC)=C(C(=O)OC)C(c3cccc(F)c3)N12 (stereo unspecified)	-22%
41	COc1ccc(CN2CCOC[C@H](Oc3ccc(C(F)(F)F)cn3)C2)cc1	-21%[70.6 µM]
42	Cc1cc(C(=O)N2CCN(C(=O)N3CC4CC(C3)[C@H]3CCCC(=O)N3C4)CC2)n(C)n1 (stereo partly specified)	2%
43	Cn1cnnc1CC1CCCN(C(=O)c2ccco2)C1 (stereo unspecified)	-5%

# The list continues:
no. | hNpr1 antagonist | molecule
49 | -1% | Cc1ccc(C(=O)N2C[C@@H](Oc3ccccc3)C[C@@H]2C(=O)N2CCOCC2)cn1
50 | -1% | O=C(NCCC1CCN(C(=O)Nc2ccccc2F)CC1)c1cccc(F)c1
51 | 0% | O=C(N[C@@H]1c2ccccc2C[C@@H]1O)c1cc(COc2ccccc2F)[nH]n1
52 | -10%[70.6 µM] | O=C1CCCCCN1C1CCN(Cc2ccsc2)CC1
53 | 1% | CNc1nc2c(s1)C(c1ccc(F)c(F)c1)CC(=O)N2 (stereo unspecified)
54 | -18% | CNC(=O)[C@@H]1CN(C(=O)c2cc(C)n(Cc3ccco3)c2C)C[C@H]1CO
55 | 0% | c1ccc(-c2noc(-c3nc(-c4ccccn4)no3)n2)cc1
56 | -2%[70.6 µM] | CC1(C)[C@H](Cc2cc(-c3ccc(F)cc3)on2)C[C@@H]1NC1CCOCC1
57 | -11% | c1ccc(CNc2ncncc2-c2nc(-c3ccccc3)no2)cc1
58 | 4% | O=C1NCCCCCCN(Cc2ccncc2)[C@@H]2CN(S(=O)(=O)c3cccc(F)c3)CC[C@@H]12
59 | 0% | O=C(C1CCOCC1)N1CCCCCCn2c(nnc2-c2ccc(F)cc2)CC1
60 | -25% | CCCNC(=O)c1cccc2c1CCN2S(=O)(=O)c1ccccc1F
61 | -19% | CCOc1ccccc1C(=O)NC1CCCN(c2cc(-c3ccc(F)cc3)[nH]n2)C1 (stereo unspecified)
62 | 11% | N#Cc1ccc(CN2CCn3c(nnc3C3CCCNC3)C2)cc1 (stereo unspecified)
63 | 5%[70.6 µM] | O=C(NCC1(COc2ccccc2)C[C@@H](O)[C@@H](O)C1)c1ccno1 (stereo partly specified)
64 | 3% | Cc1ccc2c(C(=O)N3CCN(c4ccccc4F)CC3)cc(NC(=O)C(C)C)cc2n1
65 | -2% | COc1ccc(-c2noc(-c3nnn4c3COC(c3ccc(C)cc3C)C4)n2)c(OC)c1 (stereo unspecified)
66 | -3% | CC(C)NC(=O)N1CCC2(CC1)CC(C(=O)N1CCOCC1)N(C)C2 (stereo unspecified)
67 | 1% | CCC(=O)N1CCC(Cc2ncc(C)n2C(C)C)C1 (stereo unspecified)
68 | ? | COc1cccc(-c2[nH]cnc2-c2ccccc2)c1OCCCn1ccnc1
69 | -5%[70.6 µM] | CC(C)N[C@H]1C[C@@H](Cc2cc(CN3CCOCC3)on2)C1(C)C
70 | 9% | COc1ccc(Cc2ncc3c(n2)CN(C(=O)C(CO)NC(C)=O)C3)cc1 (stereo unspecified)
71 | 0% | COc1ccc(C(=O)N2C[C@@H](Oc3cccnc3)C[C@H]2C(N)=O)c(OC)n1
